Assay outcomes deposited in PubChem BioAssay by ICCB-Longwood Screening Facility, Harvard Medical School.
Vaccinia pol inh: blocks vaccinia virus processive DNA synthesis | in vitro processive DNA synthesis, absorbance read-out; stronger effect = lower value; some inactives read as strong as hits | normalized absorbance, % (concentration not given with the values) | hit rate 0.94% among 46,000 | AID 493162;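 active = replicate mean up to 90% and picked by the depositor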;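 note: 100% = median of the test wells of a plate; 100 nL library stock went into each well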
* = called active by the depositor. An excerpt (hit frequency here may not be typical).

mol | Vaccinia pol inh
O=C(Cc1cccs1)Nc1nnc(SCC(=O)N2CCCCCC2)s1 | 99.0
CC(C)OC(=O)CSc1nnc(-c2ccccc2)o1 | 101.3
C=CCC(c1cc(Cl)ccc1N)S(=O)(=O)c1ccc(C)cc1 (centres undefined) | 98.4
COc1ccc(/C=N/n2c(C)cc(C)cc2=O)cc1 | 100.1
Cc1ccc(-c2nc3s/c(=C/c4cccs4)c(=O)n3n2)cc1 | 85.0
Cc1cc2cc(CNC(=S)Nc3cccc(C)c3C)ccc2[nH]1 | 99.3
N#Cc1cc2c(nc1SCCS(=O)(=O)Cc1ccc(Cl)cc1)CCCC2 | 99.0
CC1CCN(C(=O)CN2C(=O)CSc3ncccc32)CC1 | 109.3
CC12CCC3C(CC=C4CC(O)CCC43CO)C1CCC2OC(=O)c1ccccc1 (centres undefined) | 93.1
COc1ccc(-c2nc(C)c(CCNC(=O)c3cccc(C(F)(F)F)c3)s2)cc1 | 101.8
Cc1nn(CCCC(=O)N2CCCC2)c(=O)c2c1sc1ccccc12 | 95.6
CC1CCc2ccccc2N1C(=O)c1cccs1 (centres undefined) | 104.5
O=C1/C(=C\c2ccccc2)N=C(c2ccccc2)N1c1ccccc1 | 100.5
O=C(Nc1ccccc1)C1c2cccc[n+]2CC(=O)N1c1ccccc1 (centres undefined) | 103.2
Cc1ccc(C(=O)COC(=O)c2cc3cc(Br)ccc3oc2=O)cc1 | 104.1
Cc1ccc2nc(-c3cccc4ccccc34)[nH]c2c1 | 98.9
O=C(Nc1c(C(=O)c2ccccc2)oc2ccccc12)c1ccccc1F | 100.9
CN1C(=O)/C(=C\c2ccc(Cl)cc2Cl)OC1=S | 100.1
O=C(CSc1nnc2scc(-c3ccc(Cl)cc3)n12)c1ccc2c(c1)OCO2 | 93.3
Cc1nn(CCC#N)c(C)c1Oc1ccccc1O | 103.1
CCN(CC)S(=O)(=O)c1ccc(-c2csc(=Nc3ccc(C)cc3)n2C)cc1 | 100.2
COc1c2ccccc2c(OC)c2ccccc12 | 96.9
O=C(/C=C/N1CCOCC1)c1ccc(Cl)cc1 | 100.2
C=C[C@]1(C)C=C2CC[C@@H]3[C@](C)(CCC[C@@]3(C)C(=O)O)[C@H]2CC1O (some centres undefined) | 100.3
C[N+]1(C)C2CCC1CC(OC(=O)C(CO)c1ccccc1)C2 (centres undefined) | 99.3
CC(C)(C)c1nc2c(o1)OC(N)=C(C#N)C2c1ccc(Cl)cc1Cl (centres undefined) | 79.9
CCn1cc2c(n1)-c1c(oc(C(=O)NCc3cccnc3)c1C)CC2 | 95.2
O=c1oc2ccccc2c(O)c1C=Nc1cccc(C(F)(F)F)c1 | 100.5
O=c1nc(NC2CCCC2)ccn1Cc1cccc(Br)c1 | 100.3
NCc1csc(-c2ccccc2)n1 | 99.8
O=C(NCCN1Cc2ccccc2C1=O)Nc1cccc(Cl)c1 | 100.1
COc1ccc(CCNC(=O)C2CCN(c3ccc(N4CCOCC4)nn3)CC2)c(OC)c1 | 109.6
O=S(=O)(c1cccc2cccnc12)N1CCCC1c1ccc(F)cc1 (centres undefined) | 117.0
CC(C)NCC(O)COc1cccc2ccccc12 (centres undefined) | 96.4
O/N=C/c1ccn(-c2ccc(Br)cc2)c1 | 82.7
CCOc1ccc(NC(=O)c2cc(=O)c3ccccc3o2)cc1 | 100.9
NS(=O)(=O)c1cc2c(cc1Cl)NCNS2(=O)=O | 102.9
N#Cc1ccc(CSc2nc3ncccc3c(=O)n2Cc2ccccc2)cc1 | 99.3
CN1C2CCC1CC(OC(=O)c1c[nH]c3ccccc13)C2 (centres undefined) | 102.2
Cc1cc(NC(=O)C2COc3ccccc3O2)no1 (centres undefined) | 102.1
O=C(Cn1cnc2scc(-c3ccccc3)c2c1=O)N1CCCCC1 | 99.3
CC1CC1C(=O)OCC(=O)Nc1ccccc1Br (centres undefined) | 105.1
CC1CCc2c(sc(NC(=O)C3c4ccccc4Oc4ccccc43)c2C(N)=O)C1 (centres undefined) | 100.1
O=S(=O)(NCCc1csc(-c2cccnc2)n1)c1ccccc1 | 100.9
CN1CCc2[nH]c(=S)c(C#N)c(-c3ccccc3)c2C1 | 93.1
O=c1ccc2ccc(OCc3ccc(Cl)cc3)cc2o1 | 99.3
Cn1c(C(=O)NCC2(c3ccccc3)CCCC2)cc2c(=O)n(C)c3ccccc3c21 | 81.5
Cc1ccc(C(C(=O)NCc2ccccc2)N(Cc2ccco2)C(=O)Cn2nnc3ccccc32)cc1 (centres undefined) | 109.3
NC(=O)c1ccccc1NC(=O)Cc1ccccc1 | 97.9
S=C1NCCN1Cc1ccccc1 | 90.4

Shown as labelled records: two of the compounds above.
CN1CCc2[nH]c(=S)c(C#N)c(-c3ccccc3)c2C1
  Vaccinia pol inh: 93.1
O=c1ccc2ccc(OCc3ccc(Cl)cc3)cc2o1
  Vaccinia pol inh: 99.3

The listing continues.
mol | Vaccinia pol inh
O=C(N/C(=C/C=C/c1ccccc1)C(=O)N1CCCCC1)c1ccccc1 | 83.5
Cc1[nH]c2ccccc2c1C(=O)CSC(=S)N(C)C1CCCCC1 | 100.2
CC1CCc2sc(NC(=O)C(C)C)c(C(N)=O)c2C1 (centres undefined) | 100.0
CN(C)/C=C/C=C1\N=C(c2ccccc2)OC1=O | 103.2
CCCCN1COc2ccc3c(C)cc(=O)oc3c2C1 | 87.9
COc1ccc(N2C(=NC(C)=O)SC3CS(=O)(=O)CC32)cc1 (centres undefined) | 104.6
O=C(OC/C=C/c1ccccc1)c1ccc(S(=O)(=O)N2CCOCC2)cc1 | 103.1
COc1ccc(S(=O)(=O)Cc2ccc(C(=O)N3CCOCC3)o2)cc1 | 97.8
Cc1oc(-c2cccs2)nc1CSc1nc2ccncc2[nH]1 | 104.8
O=C(C1=COCCO1)N1CCN(c2ccccc2)CC1 | 106.0
CCOC(=O)C1=C(Nc2ccccc2)OCC1=O | 100.1
Cc1cc(C)c2c(CC(=O)Oc3ccc(Cl)cc3)coc2c1 | 103.6
C=CCc1cccc(C=Nc2ccc(Br)cc2)c1O | 100.7
Cc1ccc(CSCCC(=O)NC2CCCC(C)C2C)cc1 (centres undefined) | 116.7
CCCN(c1ccccc1C(=O)O)S(=O)(=O)c1ccc2c(c1)n(C)c(=O)n2C | 94.4
Fc1cnc(N2CCc3ccccc32)nc1N1CCc2ccccc21 | 97.7
CCCN1CNC(=S)N(c2cc(C)ccc2C)C1 | 99.6
O=C(Nc1nc2ccccc2c(=O)s1)c1ccccc1 | 95.7
CCCN(CCC)S(=O)(=O)c1ccc(C(=O)Nc2ccccc2)cc1 | 95.6
COc1ccc(NC(=O)CC2C(=O)N(c3ccccc3)C(=O)N2C(C)C)cc1 (centres undefined) | 103.3
CCCS(=O)(=O)N1CCN=C1SCc1ccccc1 | 85.7
OC(Cc1ccccc1)(c1ccccc1)c1ccccc1NC(=S)NC1CC2C=CC1C2 (centres undefined) | 109.6
CCN(CC)c1nc(-c2ccc(F)cc2)cc(C(F)(F)F)n1 | 100.2
CS(=O)(=O)N1N=C(c2cccs2)CC1c1ccccc1F (centres undefined) | 100.5
CCC(Sc1nnc2sc3ccccc3n12)C(=O)O (centres undefined) | 100.9
CCOc1ccc(OCC)c(C2C(Cc3ccccc3)N3c4ccccc4C=CC3C2(C#N)C#N)c1 (centres undefined) | 99.6
CCSc1nc(-c2ccc(Cl)cc2)c(C#N)c(=O)n1CC | 100.9
CCc1ccc(NC(=O)c2ccc3c(Cl)c4c(nc3c2)CCC4)cc1 | 104.5
COc1ccc(Nc2nc(N3CCN(CCO)CC3)nc3c2cnn3C)cc1Cl | 38.3*
NC(=S)c1ccc(S(=O)(=O)N2CCOCC2)cc1 | 100.8
CCCC1=NN(c2nc3ccccc3s2)C(=O)/C1=C/N(C)C | 99.7
Cc1cccc(CSc2ncnc3nc[nH]c23)c1 | 101.3
CCNC(=O)c1c(-c2ccccc2)noc1C | 106.4
Cc1ccc(Sc2c(-c3ccccc3)nc3ncccn23)cc1 | 108.1
Cc1ccc(NCc2ccc(Cl)nc2)c(NCc2ccc(Cl)nc2)c1 | 100.1
COC(=O)c1ccc(NC(=O)C2C3CCC(C3)C2C(=O)O)cc1 (centres undefined) | 100.4
CCOC(=O)c1oc2ccccc2c1CO | 77.0*
COc1ccc(Cc2nn[nH]n2)cc1 | 105.6
Cc1[nH]c2ccc(C(=O)O)cc2c1C | 90.4
Cc1ccc(-c2nn(-c3ccccc3)cc2C(=O)N(C)C2CCN(C)CC2)cc1 | 103.9
CC1Cn2c(nnc2-c2cccc(O)c2)S1 (centres undefined) | 99.8
N#C/C(=C(/O)CCN1C(=O)c2ccccc2C1=O)c1nc2ccccc2[nH]1 | 100.2
O=C(O)CNC(=O)c1cc(-c2ccc(Cl)cc2)nc2ccccc12 | 99.4
CC1=NN(c2ccccc2)C(=O)C1/C=C1\SC(=S)N(CC2CCCO2)C1=O (centres undefined) | 100.1
COc1cc(Cl)c(C)cc1NC(=O)COC(=O)CCC1CCCC1 | 100.2
Cc1cc(O)cc2oc(C(F)(F)F)c(Oc3ccccc3)c(=O)c12 | 98.3
CN(C)c1nc2c([nH]1)c(=O)[nH]c(=O)n2C | 100.5
Cn1c(=NC(=O)c2ccc(Cl)s2)sc2cccc(Cl)c21 | 116.9
CS(=O)(=O)CCSc1ncccc1C(=O)NCc1cccs1 | 100.5
O=C(NCCc1ccccc1)C1CCN(C(=O)C(C(=O)c2ccccc2)n2ccccc2=O)CC1 (centres undefined) | 84.9

Additional results:
mol | Vaccinia pol inh
CN(C)NC1=CC(=[N+]2CCCCC2)CC(C)(C)C1 | 98.3
Clc1ccc(-c2nc3sccn3c2/C=N/OCc2ccc(Cl)c(Cl)c2)cc1 | 100.2
CSc1nnc(-c2c[nH]c3ccccc23)n1C | 99.9
CC(C)(C)C(=O)Nc1ccc(-c2cc3cc(Cl)ccc3o2)cc1 | 96.0
CCOC(=O)c1ccc(-n2c(C)cc(/C=N/O)c2C)cc1 | 100.0
CC1CN(CCC(=O)Nc2sc3c(c2C#N)CCC3)CC(C)O1 (centres undefined) | 100.5
O=C(O)c1ccc(-n2nc(C(F)(F)F)c3c2CCCC3)cc1 | 99.3
CCOC(=O)C1CCN(C(=O)CCN2C(=O)c3ccccc3Sc3ncccc32)CC1 | 100.8
CCOC(=O)N1CC=C(c2c(C)[nH]c3ccccc23)CC1 | 97.2
CCOC(=O)c1sc(NC2=NCCCCC2)nc1C | 103.7
COC(=O)c1sc(NC(=O)COc2ccc(OC)cc2)c(C#N)c1C | 104.0
O=C(CCSc1ccc(Cl)cc1)NCc1ccncc1 | 101.0
CCN(CC)C(=O)Oc1cc(C)nc(-c2ccc(F)c(Cl)c2)n1 | 129.9
Cc1ccc(C)c(S(=O)(=O)/N=C(\c2ccccc2)N(C)C)c1 | 99.9
CCn1cc(C(=O)NCCc2ccccc2)c(=O)c2cc(S(=O)(=O)N3CCC(C)CC3)ccc21 | 98.7
CN(C(=O)c1ccccc1)c1ccc(C(O)(C(F)(F)F)C(F)(F)F)cc1 | 101.3
COc1ccc(Nc2cc(C)ncn2)cc1 | 102.1
C#C[C@]1(O)CCC2C3CCC4=Cc5oncc5C[C@]4(C)C3CC[C@@]21C (some centres undefined) | 100.5
O=C1CCC(C(=O)OC(C(=O)Nc2ccc(Cl)c(C(F)(F)F)c2)c2ccccc2)N1 (centres undefined) | 104.3
CC(=O)Nc1ncnc2sc3c(c12)CCCC3 | 98.7
CCC(C)NC(=O)C1CCN(S(=O)(=O)CC)CC1 (centres undefined) | 94.8
CCN1CCC(N(Cc2ccco2)C(=O)Nc2cccc(C(F)(F)F)c2)CC1 | 97.8
CN(C)c1ccc(NC(=O)c2ccccc2)cc1 | 103.0
CO[C@H]1O[C@H](CO)C(=O)C(O)=C1N | 98.4
CC(=O)Nc1c2c(nn1-c1ccccc1)CSC2 | 98.6

An excerpt of these results, field by field:
> O=C1CCC(C(=O)OC(C(=O)Nc2ccc(Cl)c(C(F)(F)F)c2)c2ccccc2)N1 (centres undefined)
- Vaccinia pol inh: 104.3

> CC(=O)Nc1ncnc2sc3c(c12)CCCC3
- Vaccinia pol inh: 98.7

> CCC(C)NC(=O)C1CCN(S(=O)(=O)CC)CC1 (centres undefined)
- Vaccinia pol inh: 94.8

> CCN1CCC(N(Cc2ccco2)C(=O)Nc2cccc(C(F)(F)F)c2)CC1
- Vaccinia pol inh: 97.8

New compounds follow
mol | Vaccinia pol inh
CCN(CC)C(=O)/C=C\c1cn(-c2ccccc2)nc1-c1ccc(OC)cc1 | 101.1
OC1(C2(O)CC(c3ccccc3)NO2)CCCCC1 (centres undefined) | 102.9
CC(C)CNC(=O)C1CCCCC1C(=O)O (centres undefined) | 104.1
O=C(Nc1nnc(-c2ccccc2)o1)C1CCCCC1 | 87.8
COc1ccc(CN(C)CCc2ccccn2)c(OC)c1OC | 104.7
CC(C)c1cc(C(=O)NCc2ccc(Cl)cc2)no1 | 100.9
COc1ccc2oc(=O)cc(C)c2c1 | 100.1
CCC1Oc2ccc(C)cc2N(CC(=O)NCC2COc3ccccc3O2)C1=O (centres undefined) | 100.6
O=C(c1ccc(C(=O)N2CCCCCC2)cc1)N1CCCCCC1 | 105.4
CCc1ccc(-c2cc3c(=O)n(CC(=O)NC4CCCC(C)C4C)nc(C)n3n2)cc1 (centres undefined) | 98.8
Cc1cccc(-n2cnc3cc(C(=O)NCc4ccc(F)cc4)ccc32)c1 | 100.4
CC(c1ccccc1)C1Nc2ccccc2C(=O)N1c1ccccc1 (centres undefined) | 100.1
CC(C)COc1ccc(C(=O)OCCN2CCCCC2)cc1 | 100.4
O=c1cc(-c2ccccc2)c2cc(Cl)c(O)cc2o1 | 100.2
CC(C)c1cccc(C(C)C)c1NC(=O)Cc1cccs1 | 98.4
O=c1[nH]c2c(n1-c1ccccc1)C=Nc1cc3ccccc3cc1N2 | 99.6
CC(=O)N1CCC(C(=O)NCc2ccc(-c3cccs3)cc2)CC1 | 114.8
COc1cc2ccc(=O)oc2cc1OC | 95.8
